Bioassay records as filed in PubChem BioAssay.
Sfp PPTase inh = qHTS Assay for Inhibitors of Bacillus subtilis Sfp phosphopantetheinyl transferase (PPTase); 4'-phosphopantetheinyl transferase ffp (Bacillus subtilis), Q9F4F7; Potency, µM, without a hit: max response, negative = inhibition, actives largely listed as inhibitors; 310,000 tested, 3.5% active; Biochemical Sfp PPTase activity, qHTS; active = well fitted inhibition curve with a large enough effect; inconclusive = small, poorly fitted or top-dose-only effect, or another doubt; inactive = no such curve, though single readings can be large or run the other way;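 note: the enzyme is Sfp with the accession as filed and its product quenches rhodamine fluorescence; potency is the fitted concentration of half-maximal effect; 0% = enzyme reaction without inhibitor and -100% = no enzyme wells; top concentration of the series not given in the record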
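Step 1, compound plus 15 nM Sfp-PPTase, 15 min, room temperature. Step 2, add rhodamine-CoA (5 uM) and BHQ-2-YbbR (12.5 uM). Step 3, read 525/598 nm fluorescence at 0 and 30 min.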
CtBP-E1A inh = qHTS Assay for Inhibitors of the CtBP/E1A Interaction; CtBP / adenovirus E1A interaction (AlphaScreen); AlphaScreen GST-E1A/His-CtBP binding, 1536-well; stronger effect = lower value; control for the full effect not named in the record; activity change, % (concentration not given with the values); 340,000 tested, 0.49% active; AID 651724, 2012; in the data active means activity change below about -65%; inconclusive means about -30% to -65%; inactive means above about -30%; note: % is set by controls: 0 for no effect and ±100 for the full control effect
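Protein mix (5X: 125 nM each GST-E1A, His-CtBP) was incubated with pinned compound 2 h at 37 deg C in dark, in 50 mM Tris pH 8.0 buffer with 300 mM NaCl. Glutathione donor and nickel acceptor beads followed; AlphaScreen signal read after 1 h.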
PINK1 modulator = A Quantitative High throughput Screen to Identify Chemical Modulators of PINK1 Expression. 410,000 tested, 0.2% active. Potency, µM (titrated, usually from 76.6 µM), for the others: at the top dose activation (PINK1 increase), usual class: activators. AID 624263, 2012. PINK1 immunofluorescence, high-content cytometry, 24 h; active = well fitted activation curve with a large enough effect; inconclusive = small, poorly fitted or top-dose-only effect; inactive = flat fitted curve, though single readings scatter; cell line not stated here;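 note: potency is the fitted concentration of half-maximal effect; % of control where 0% means no effect; nearly all actives have a fitted effect of over 65% in size; a mitochondrial uncoupler was the plate control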
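Cells are seeded, rested 12 hours, then given compound at five concentrations or DMSO for 24 hours. After fixation, blocking and antibody staining, PINK1 amount and mitochondrial localization are scored; CCCP serves as control.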
D2 PAM = Beta-Arrestin HTS for Positive Allosteric Modulators of the Human D2 Dopamine Receptor: Potentiators. D(2) dopamine receptor (Homo sapiens), P14416. DiscoveRx D2 beta-arrestin cells, luminescence, 90 min; 100% = 57 uM dopamine signal. potentiation, % (concentration not given with the values). 360,000 tested, 0.23% active. AID 624464, 2012; active = potentiation of 50% or more; inconclusive = 30% to 50%; inactive = 30% or less;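 note: compound concentration not given in the record; tested on top of an EC20 dose of dopamine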
Target sequence (P14416 whole entry, looked up): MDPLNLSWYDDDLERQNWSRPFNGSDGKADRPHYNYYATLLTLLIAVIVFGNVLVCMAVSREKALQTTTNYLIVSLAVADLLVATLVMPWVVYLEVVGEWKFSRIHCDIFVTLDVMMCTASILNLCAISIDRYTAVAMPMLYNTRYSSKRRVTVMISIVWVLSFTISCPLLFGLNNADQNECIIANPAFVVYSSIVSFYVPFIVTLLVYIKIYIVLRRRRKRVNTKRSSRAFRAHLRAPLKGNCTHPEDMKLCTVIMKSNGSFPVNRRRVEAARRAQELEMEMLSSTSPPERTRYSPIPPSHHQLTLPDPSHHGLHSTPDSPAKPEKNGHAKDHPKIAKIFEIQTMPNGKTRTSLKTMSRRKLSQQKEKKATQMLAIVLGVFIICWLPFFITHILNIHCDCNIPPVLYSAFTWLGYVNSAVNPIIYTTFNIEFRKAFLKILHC
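PathHunter D2 cells, attached overnight at 37 deg C, received compound in DMSO plus dopamine at EC20 (50 nM final) for 90 min at 37 deg C. Beta-arrestin recruitment was read as luminescence after 1 h with detection reagent at ambient temperature.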
Six1-Eya2 inh = qHTS Assay for Inhibitors of the Six1/Eya2 Interaction; Homeobox protein SIX1 (Homo sapiens) + Protein phosphatase EYA2 (Homo sapiens), …; AlphaScreen GST-Six1/His-Eya2 binding, biochemical; stronger effect = lower value; control for the full effect not named in the record; activity change, % (concentration not given with the values); 360,000 tested, 0.56% active; AID 651725, 2012; in the data active = activity change below about -65%; inconclusive = about -30% to -65%; inactive = above about -30%; note: % is set by controls: 0 for no effect and ±100 for the full control effect
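AlphaScreen with GST-Six1 and His-Eya2 (5X mix: 250 nM and 500 nM), glutathione donor and nickel acceptor beads; buffer 50 mM Tris pH 8.0, 300 mM NaCl, 1 mM TCEP; 1 h at 37 C in the dark.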
D2 agonist = Beta-Arrestin HTS for Positive Allosteric Modulators of the Human D2 Dopamine Receptor: Agonists; 360,000 tested, 0.084% active; DiscoveRx PathHunter D2 beta-arrestin, luminescence, 90 min; 100% = 57 uM dopamine signal; activation, % (test concentration not listed); AID 624465, 2012; in the data active = activation above about 40%; inconclusive = about 15% to 40%; inactive = below about 15%; note: compound concentration not given in the record; the text of the record calls up to 30% inactive
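Agonist mode: compounds alone added to overnight-plated D2 PathHunter cells for 90 min at 37 C, with 57 uM final dopamine (EC100) defining full response. Beta-arrestin recruitment detected by chemiluminescent reagent, read after 1 h at ambient temperature.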
TRPV1 PAM = HTS Assay for Compounds that Act as Potentiators of the Vanilloid Receptor 1; TRPV1-expressing cells, Fluo-8 calcium influx, capsaicin EC20 potentiation; host cell line not named in the record; control for the full effect not named in the record; Transient receptor potential cation channel subfamily V member 1 (Homo sapiens), Q8NER1; 320,000 tested, 0.02% active; potentiation, % at 8.33 µM; AID 540277, 2011; active means potentiation above 80%; inconclusive means 30% to 80%; inactive means below 30%; note: 0% is about no effect
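Fluo-8 calcium influx in TRPV1-expressing cells, kinetic read (ex 480/em 520 nm). Compound added and read 3 min for agonist activity, followed by capsaicin at EC20 final and 2 min further read for enhancement.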
The depositor's hits bear a star; ? = inconclusive; . = not tested or not shown; & = joins results of further samples; [ ] = another dose, or the depositor's remark. Rows are unselected; 3.7% or so of the library scored in one or more.

SMILES | Sfp PPTase inh | CtBP-E1A inh | PINK1 modulator | D2 PAM | Six1-Eya2 inh | D2 agonist | TRPV1 PAM
COC(=O)C1=C(N)Oc2cc(C)n(C)c(=O)c2C1c1ccc(Cl)c(Cl)c1 (stereo not drawn) | 3% | -2 | 1.8% | 0 | 5 | -0.1 | -12
CN(C)CCCNC(=O)N1c2ccccc2C=Cc2ccccc21 | 10% | -2 | -1.7% | -16 | 8 | -5.2 | -22
CC(=O)Nc1nc2c(ccc3ccccc32)s1 | 13% | 1 | 3.0% | -1 | 2 | -2.3 | 17
COc1cccc(CN(C)C(=O)Cc2c[nH]c3ccccc23)c1 | 7% | 3 | -0.9% | -4 | 6 | -4.9 | 9
CC(C(=O)N1CCN(C(=O)c2ccco2)CC1)N1C(=O)NC2(CCCCC2C)C1=O (stereo not drawn) | . | 0 | 1.3% | -1 | 0 | -1.8 | 0
COc1ccc(C(C(=O)NCc2ccccc2)N(Cc2cccs2)C(=O)c2cnccn2)cc1 (stereo not drawn) | 6% | -5 | -1.2% | -9 | -4 | -3.1 | 25
Cc1cc(C)nc(Nc2nc(=O)c3ccccc3s2)n1 | ? | 3 | 3.4% | -23 | 14 | -5.1 | -2
COc1cc(OC)nc(NC(=O)NS(=O)(=O)c2ccc(OC(F)(F)F)cc2)n1 | 10% | 3 | 2.9% | -5 | 4 | -4.5 | 10
O=C(CN(c1ccccc1)S(=O)(=O)c1ccccc1[N+](=O)[O-])Nc1ccccc1C(=O)N1CCOCC1 | 8% | . | -0.9% | 5 | 0 | -0.4 | 0
CC(C)c1ccc(N2C(=NC(=O)C3CC3)SC3CS(=O)(=O)CC32)cc1 (stereo not drawn) | 9% | -8 | 3.0% | -9 | 4 | -3.0 | 13
COCc1c(Br)c(C)nc2sc3c(=O)[nH]nnc3c12 | -28% | -18 | 1.1% | 0 | -7 | 5.7 | 5
CCOc1ccc2nc(N3CCOCC3)nc(C)c2c1 | 10% | 2 | 7.8% | -2 | 18 | -2.5 | -7
c1ccc2c(NCC3CCCO3)nc(N3CCOCC3)nc2c1 (stereo not drawn) | 20% | 5 | -0.3% | -10 | 0 | -2.3 | -6
O=S(=O)(c1ccc(Cl)c2ccccc12)N1CCCC1 | -24% | 11 | 3.4% | -1 | 5 | 1.8 | -20
CCOC(=O)C1CCCN(C(=O)COc2ccc(N(C)S(=O)(=O)c3ccc(F)cc3)cc2)C1 (stereo not drawn) | 7% | . | 1.6% | -10 | 0 | -0.9 | 4
COc1ccc(Cl)cc1S(=O)(=O)n1cnc2ccccc21 | 7% | 4 | 3.4% | 13 | -2 | -4.2 | -1
COCCNC(=S)N(c1ccccc1)C(C)C | -11% | -9 | -1.9% | -4 | 22 | -2.7 | 7
NC(=O)CC[C@@H]1NC(=O)[C@H](Cc2ccc(O)cc2)NC(=O)c2cc([N+](=O)[O-])cc(F)c2OCC[C@@H](C(N)=O)NC1=O | 6% | -15 | 9.5% | -13 | -9 | -5.6 | 1
CCOC(=O)C1=C(C)Nc2nnnn2C1c1cccnc1 (stereo not drawn) | 15% | 0 | -0.7% | 13 | 4 | -0.4 | 9
COc1cccc(C(=O)NCCS(=O)(=O)N2CCN(c3ccccc3)CC2)c1OC | . | -2 | 1.2% | -13 | 2 | -4.6 | .
CCOC(=O)C(C(=O)OCC)C(=O)c1cc(OC)c(OC)c(OC)c1 | 5% | 0 | -2.4% | -20 | 23 | -2.4 | -3
O=C(NNC(=O)c1ccc(O)cc1O)c1ccc(Cl)cc1 | 26% | -12 | 0.3% | -20 | 3 | -1.5 | -6
CCSc1nc2c(c(=O)[nH]c(=O)n2C)n1C/C=C(/C)Cl | -18% | -1 | 2.7% | 4 | 9 | -1.1 | -19
COc1ccc(C2CC(C)(c3ccc(OC)cc3OC)Nc3ccccc3N2)c(OC)c1 (stereo not drawn) | 5% | -9 | 0.0% | -6 | 2 | -3.8 | 3
CCOc1ccc(C(=O)COC(=O)CNC(=O)C2CCCCC2)cc1 | . | . | 0.6%&-0.7% | 1 | 4 | ? | -8
Cn1c(N)c(C(=O)COC(=O)Cc2cccc(C(F)(F)F)c2)c(=O)n(C)c1=O | . | . | 1.5% | -16 | -16 | 5.5 | .
O=C(O)CSc1nc2ccccc2n1-c1ccccc1 | 16% | -1 | -0.5% | 5 | 1 | 1.6 | 2
O=C1NC[C@H](CCCCN2C[C@H](Cc3ccccc3)N(CCc3ccccc3)C(=O)C2=O)N(CC2CCCCC2)C1=O | . | 26 | -0.5% | . | 23 | . | .
COc1ccc(C(O)c2nc(-c3cncnc3)cs2)cc1 (stereo not drawn) | . | 0 | 1.7% | 3 | 0 | 0.9 | .
COC(=O)C1C2CC3c4[nH]c5cc(OC)ccc5c4CCN3CC2CC(OC2CCCCO2)C1OC (stereo not drawn) | . | 0 | 2.4% | -5 | -17 | 14 | .
CN(Cc1cc(=O)[nH]c2ccccc12)C(=O)c1ccccc1 | 3% | -14 | -3.8% | -3 | 3 | 2.7 | 0
COc1ccc(NC(=O)c2ccc(C)cc2)c[n+]1[O-] | 14% | 8 | 1.8% | -7 | 0 | -1.7 | 2
COc1cc(CNc2ccccc2SC)cc(OC)c1OC | ? | -24 | 2.7%[38.3 µM] | 0 | -8 | 2.7 | 8
COc1ccccc1[C@@H]1C(c2cccc(C)c2)=NN(c2ccccc2)[C@H]1C(=O)N1CCOC1=O | 14%&-5% | 23 | 2.6% | -5 | 26 | -2.3 | 5
O/N=C/c1ccccc1OCc1ccccc1F | 11% | -4 | 6.1% | -7 | -5 | -2.6 | 4
Cc1cc(=O)oc2cc(NC(=O)CCOc3ccccc3)ccc12 | 12% | 5 | 4.3% | -7 | 8 | -6.5 | -9
C/C(=N/NC(=O)CNC(=O)COc1cccc(C)c1)c1ccc(Cl)cc1 | 5% | 9 | 1.0% | -7 | 4 | -2.9 | 27
O=C(CSC1=NCCS1)Nc1ccc(S(=O)(=O)NC2CCCCC2)cc1 | 10% | -6 | 6.1%[38.3 µM] | 13 | -12 | 0.2 | -1
CCOC(=O)c1cccc(NS(=O)(=O)c2ccc(NC(C)=O)cc2)c1 | -22% | 2 | . | -4 | 18 | -2.2 | 23
Cc1ccc(C(=O)N2CCN(S(=O)(=O)N3CCCCC3)CC2)cc1 | 1% | 3 | -0.2% | 8 | 7 | -2.4 | 2

Molecules shown so far that contain a CF3 group (2):
SMILES | Sfp PPTase inh | CtBP-E1A inh | PINK1 modulator | D2 PAM | Six1-Eya2 inh | D2 agonist | TRPV1 PAM
COc1cc(OC)nc(NC(=O)NS(=O)(=O)c2ccc(OC(F)(F)F)cc2)n1 | 10% | 3 | 2.9% | -5 | 4 | -4.5 | 10
Cn1c(N)c(C(=O)COC(=O)Cc2cccc(C(F)(F)F)c2)c(=O)n(C)c1=O | . | . | 1.5% | -16 | -16 | 5.5 | .

(more compounds)
SMILES | Sfp PPTase inh | CtBP-E1A inh | PINK1 modulator | D2 PAM | Six1-Eya2 inh | D2 agonist | TRPV1 PAM
COc1ccc(NC(=O)/C(C#N)=C/c2cc(C)n(-c3ccc(N4CCOCC4)c([N+](=O)[O-])c3)c2C)cc1 | 11% | 16 | 4.0% | -18 | 3 | -1.7 | 14
Cc1nccc(-c2cccc(N/N=C(\C#N)C(=O)c3ccccc3)c2)n1 | 3% | . | 10% | -9 | 4 | 1.4 | 1
CCn1cc(C(=O)N[C@H](C)c2ccccc2)c(=O)c2cc(F)c(N3CCN(C)CC3)cc21 | 10% | -3 | -2.3% | -22 | -13 | -3.8 | 3
CSc1nncc(/C(C)=N\Nc2ccccc2C)n1 | 1% | -10 | 4.8% | -2 | -10 | 2.4 | 7
COc1ccc(Oc2c(-c3ccc(O)cc3O)n[nH]c2C)cc1 | 14% | -6 | 0.4% | -1 | -5 | -1.2 | 6
O=C(NCC1COc2ccccc2O1)c1ccc(Cl)cc1 (stereo not drawn) | 12% | 5 | -2.5% | 2 | 1 | -4.2 | -15
Cc1cccc(OC(=O)c2cccnc2)c1 | 4% | -3 | 2.6% | -4 | -9 | 3.9 | -3
COc1cc(CNc2ncnc3c2ncn3[C@H]2CN(CCc3ccccc3)C[C@@H](CO)O2)cc(OC)c1OC | . | -21 | 3.0% | -17 | -23 | -4.2 | .
Cn1cnnc1SCC(=O)N1CCc2ccccc2C1 | . | 1 | -1.0% | 0 | 3 | 0.5 | .
CN[C@H](CC(=O)O)C(=O)O | 100µM* | 13 | 1.2% | -10 | 7 | -4.6 | .
CCN(C1CCCCC1)S(=O)(=O)c1ccc(-n2cnnn2)c(C)c1 | 20% | 0 | 1.6% | -13 | -19 | -5.5 | -6
COc1ccc(C(=O)N2CCc3cc(OC)c(OC)cc3C2c2ccc(OC)c(OC)c2)cc1 (stereo not drawn) | 6% | -27 | 1.7% | -2 | -10 | -3.9 | -9
COCCN(C(=O)C1CCCC1)c1c(N)n(Cc2ccccc2)c(=O)[nH]c1=O | 3% | -8 | -0.4% | -16 | 1 | 8.1 | -6
Cc1cc(C(=O)N2CCOCC2)c(C)o1 | 2% | -1 | 0.0% | -5 | 3 | -4.4 | -5
CN(CCC#N)C(=O)COC(=O)c1ccc(Cl)c(S(N)(=O)=O)c1 | 26% | 8 | 18%[38.3 µM] | -4 | 3 | -2.2 | 3
CCOC(=O)c1cc(-c2cccs2)nc2onc(C)c12 | 23% | 12 | 0.7% | -14 | 13 | -5.3 | .
CCC(=O)Nc1nc(C)c(-c2csc(Nc3cccc(O)c3)n2)s1 | ? | . | -0.5% | -13 | -11 | 0.5 | ?
CN1CCN(c2ccc(-c3cccc(NC(=O)COc4ccc(Cl)cc4)c3)nn2)CC1 | . | -2 | -1.7% | -24 | -5 | -1.1 | 13
